Source: PubChem
NPYLR7 agonist: mosquito NPYLR7 agonism; HEK293T NPYLR7/Galpha15, GCaMP6s calcium fluorescence; activation, % at 10 µM; 270,000 tested, 0.15% active; AID 1259423; in the data active = activation above about 40%;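 also: 0% = vehicle and 100% = reference agonist at the receptor; some compounds past the cut are filed as inactive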
NPYLR7 agonist max-min: recorded beside NPYLR7 agonist, whose call it bears; activation, %; measured here: Max-Min RFU normalised activation; some inactives read as strong as hits;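 span of the calcium signal over five minutes; 0% = vehicle and 100% = native peptide agonist; compound fluorescence can raise it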
Numbers without * were called inactive; & = joins results of further samples. Some of the compounds tested; count on the stated rates, not on these rows.

SMILES | NPYLR7 agonist | NPYLR7 agonist max-min
Cc1ccc(-c2cc(C(=O)N(CCC(=O)NN3CCOCC3)CC(C)C)no2)cc1 | 5 | 4
CCC(C)N(CC(=O)N(Cc1cccn1Cc1ccccc1Cl)C1CCCCC1)S(=O)(=O)c1ccc(Cl)c([N+](=O)[O-])c1 (stereo not drawn) | -6 | -2
O=C(CSCc1ccc(Cl)cc1)Nc1nc2c(s1)CCC2 | 3 | 3
Cc1onc(-c2c(Cl)cccc2Cl)c1C(=O)Nc1cccc(C(F)(F)F)c1 | -5 | -6
C/C(=N/Nc1nc(-c2ccc(Br)cc2)cs1)C(F)(F)F | -5 | -8
O=C(CS(=O)(=O)Cc1ccccc1)N(Cc1ccco1)c1nc2c(F)cc(F)cc2s1 | -11 | -18
CCOC(=O)C1(CCOc2ccccc2)CCN(C(=O)Nc2ccccc2)CC1 | 4 | 3
Cn1c(=NN=C2C3CC4CC(C3)CC2C4)sc2ccccc21 | -4 | -2
CCc1cc(NCCCNS(C)(=O)=O)nc(-c2ccccn2)n1 | 5 | 5
CN(C)c1ccc(-c2nc3c(C(=O)NNc4cccc(Cl)c4)cccc3[nH]2)cc1 | -1 | -1
COCCCN(Cc1csc(COc2c(OC)cccc2OC)n1)C(=O)c1cccc(Br)c1 | -1 | 5
COc1cc(CN2CCN(C3CCOCC3)CC2CCO)cc(OC)c1 (stereo not drawn) | 11 | 0
Cc1ccc(CC2(NC(=O)C(C)N3CCCC3=O)CC2)cc1 (stereo not drawn) | 5 | 5
Cn1c(=O)c2c(nc(CN3CCCCC3)n2Cc2c(Cl)cccc2Cl)n(C)c1=O | 20 | 15
CN(CC(=O)N1c2ccccc2NC(=O)C1(C)C)Cc1ccc(F)cc1 | 10 | 6
Cc1cnc(CN(C)C(=O)c2ccccc2OC2CCN(Cc3ccccn3)CC2)[nH]1 | 10 | 6
CCn1cc(C(=O)OCC2CCN(C)C2c2ccc(OC)cc2)cn1 (stereo not drawn) | 5 | 3
Cc1cc2cc(C(=O)NCCc3csc(-c4ncccn4)n3)ccc2o1 | 2 | 1
CCCCOC(=O)c1cccc(NC(=O)c2c(-c3ccccc3Cl)noc2C)c1 | 7 | 6
O=C(c1ccco1)N1CCSC1c1cccc(OCc2ccccc2)c1 (stereo not drawn) | 12 | 22
Cc1nonc1CN(C)C(=O)c1[nH]c2ccc(F)cc2c1C | 19 | 10
O=c1c2cnc3nc4ccccc4n3c2ccn1-c1ccccc1F | -5 | -12
O=C(c1ccc(Cl)cc1Cl)N1CCCC(N2CCN(CCOc3ccccc3)CC2)C1 (stereo not drawn) | 23 | 35
COc1ccc(-c2[nH]nc3c2C(c2ccsc2)C(C#N)C(=N)O3)cc1 (stereo not drawn) | -6 | -14
C=C(C)CN(CC)C(=O)Cn1nc(C)c(S(=O)(=O)N(C)C)c1C | -1 | 7
C=C(C)Cn1c(SCC(=O)NC2CCCCC2)nc2sc3c(c2c1=O)CCC3 | -6 | -6
Cc1ccc(NC(=O)CCN2C(=O)c3ccccc3C2=O)c(C)c1 | -4 | -7
CC(=O)c1cc(C(=O)N2CCCC(CO)(CCc3ccccc3)C2)cs1 (stereo not drawn) | 2 | 3
FC(F)(F)c1cc(-c2ccco2)nc(-n2cnc3ccccc32)n1 | 13 | 6
CCCCN(CC(=O)Nc1cc(-c2ccccc2)nn1-c1ccc(C)cc1)S(=O)(=O)c1ccc([N+](=O)[O-])cc1 | 15 | 17
COc1cccc(COC(CN2CCN(C(=O)c3ccc(OC)c(F)c3)CC2)c2ccc(Cl)cc2)c1 (stereo not drawn) | -2 | 8
CCOc1ccccc1-n1c(C(C)N(CCc2ccccc2)C(=O)Nc2cccc(OC)c2)nc2ccccc2c1=O (stereo not drawn) | 18 | 13
COc1ccc(CNC(=O)CCC2CCCN(C(=O)Cc3cccs3)C2)c(OC)c1 (stereo not drawn) | 5 | 6
CC(C)(C)S(=O)CCNC(=O)CNC(=O)c1cc(F)cc(F)c1 (stereo not drawn) | 0 | -3
CCOC(=O)C(c1cccc(OC)c1)C1C=CC(NC(=O)c2ccc(F)c(C(F)(F)F)c2)C1 (stereo not drawn) | 0 | -7
CN(C)S(=O)(=O)NCC1CN(c2ccccc2)C(=O)O1 (stereo not drawn) | 2 | 1
Cc1occc1-c1nnc(SCC(=O)c2cc(C)n(CC3CCCO3)c2C)n1C (stereo not drawn) | 4 | 3
CCOC(=O)C1CCCN(C(=O)CSc2nc(Cl)cc(N3CCN(c4cccc(Cl)c4)CC3)n2)C1 (stereo not drawn) | 17 | 22
COc1cccc(Oc2cc(C(F)(F)F)nc(SCc3ccccc3Cl)n2)c1 | 10 | 31
COc1cccc(C(=O)N2CCC(C(Cc3ccccc3)N(C)C(=O)c3cccs3)CC2)c1OC (stereo not drawn) | 17 | 4
CCc1cnc(C)nc1N1CCN(CCc2ccccc2)CC1 | -1 | -1
Cc1cc(NC(=O)Cc2ccc(F)cc2)n(-c2nc(-c3cccs3)cs2)n1 | -7 | -14
Cc1ccnc(C(NC(=O)CCc2scnc2C)C2CC2)c1 (stereo not drawn) | 1 | -1
CN(Cc1ccccc1)Cn1[nH]c(=O)ccc1=O | 3 | 14
CC1(C)C(=O)Nc2ccccc2N1C(=O)CN1CCc2ccccc21 | -18 | -23
NC(=O)c1cc2c(nc1N1C[C@H]3OC(=O)N(C4CCCC4)[C@H]3C1)CCC2 | -1 | -2
Cc1ccc(-c2nn(CC(=O)NCCc3ccccc3)c(=O)c3nc(C)sc23)cc1 | 2 | -1
COc1ccc(S(=O)(=O)N(CCN2CCCCC2)Cc2csc(COc3cccc(C)c3C)n2)cc1 | 6 | 19
Cc1cc(C)c(S(=O)(=O)N2CCC(C(=O)NC(c3ccccc3)C3CC3)CC2)c(C)c1 (stereo not drawn) | 4 | 8
Cc1c(-c2ccc(Cl)cc2)n[nH]c1C(=O)N1CCCC2(CNC(=O)O2)C1 (stereo not drawn) | 10 | -2
O=C(COc1ccc2ccccc2c1)Oc1coc(CSc2ncccn2)cc1=O | -11 | -6
CN(CCCNC(=O)Cn1c(-c2ccc(Cl)cc2)nc2ccccc21)Cc1ccccc1 | -2 | -3
O=C(N[C@H]1CCN2C(=O)N(CCCl)C(=O)[C@@H]2C1)c1ccncc1 | -9 | -14
CC(=O)C1(C)N(O)C(C)(C)C(c2ccc(Cl)cc2)=[N+]1[O-] (stereo not drawn) | -8 | -22
CN1CCN(c2ccc(CNC(=O)c3ccc(-c4cnn(C)c4)c4ccoc34)cc2)CC1 | 9 | 14
COc1ccc(C(=O)N2C[C@@H](O)[C@H](NCCc3c[nH]c4ccccc34)C2)cc1 | 6 | -2
CCN(Cc1ccoc1)C(=O)c1cccnc1NC(C)C | 1 | -1
CCCCC(O)CN1CCc2nc(Cc3cccc(OC)c3)[nH]c(=O)c2C1 (stereo not drawn) | 27 | 31
N#Cc1c(C(F)(F)F)cc(=O)[nH]c1S | 19 | 21
COCCNC(=S)N1CCC2(CC1)OCCCO2 | -7 | -14

(continued)
SMILES | NPYLR7 agonist | NPYLR7 agonist max-min
COc1ccc(Cn2c(CO)c[nH]c2=S)cc1 | -1 | -4
Cc1c(NC(=O)c2ccco2)cccc1-c1nc2ncccc2o1 | 19 | 22
COCc1cc(CN2CCOC(Cc3ccc(F)cc3)C2)ccc1OC (stereo not drawn) | 4 | 2
O=C1NC(=O)C2C1Sc1[nH]c(=O)sc1C2c1c[nH]c2ccccc12 (stereo not drawn) | 6 | 4
COC(=O)N1CCN(c2ncnc3c2nnn3-c2ccc(OC)cc2)CC1 | -11 | -18
Cc1ccc(-c2cc(CN3CC4(CCNCC4)CC3C(=O)O)on2)cc1 (stereo not drawn) | 3 | 2
CN(C)Cc1nc(N2CCNCC2)c2c3c(sc2n1)CCCC3 | -1 | 3
CCN(CC)S(=O)(=O)c1ccc(C(=O)Nc2cc(C)nn2-c2nc3c(c(=O)[nH]2)CCC3)cc1 | 7 | -1
CC(CCc1ccccc1)NC(=O)Cn1c(=O)oc2ccc(Cl)cc21 (stereo not drawn) | 9 | 13
CCOC(OCC)c1nc2c(c(=O)[nH]1)CN(CC(O)COc1ccccc1)CC2 (stereo not drawn) | 31 | 39
CN(CCc1noc(C2CC2)n1)C(=O)C(=O)N1CCc2ccccc21 | 3 | 2
CCN1CCN(c2cc(C(C)C)c(C#N)c3nc4ccccc4n23)CC1 | 2 | -3

For convenience, 14 of the compounds above:
SMILES | NPYLR7 agonist | NPYLR7 agonist max-min
N#Cc1c(C(F)(F)F)cc(=O)[nH]c1S | 19 | 21
COCCNC(=S)N1CCC2(CC1)OCCCO2 | -7 | -14
COc1ccc(Cn2c(CO)c[nH]c2=S)cc1 | -1 | -4
Cc1c(NC(=O)c2ccco2)cccc1-c1nc2ncccc2o1 | 19 | 22
COCc1cc(CN2CCOC(Cc3ccc(F)cc3)C2)ccc1OC (stereo not drawn) | 4 | 2
O=C1NC(=O)C2C1Sc1[nH]c(=O)sc1C2c1c[nH]c2ccccc12 (stereo not drawn) | 6 | 4
COC(=O)N1CCN(c2ncnc3c2nnn3-c2ccc(OC)cc2)CC1 | -11 | -18
Cc1ccc(-c2cc(CN3CC4(CCNCC4)CC3C(=O)O)on2)cc1 (stereo not drawn) | 3 | 2
CN(C)Cc1nc(N2CCNCC2)c2c3c(sc2n1)CCCC3 | -1 | 3
CCN(CC)S(=O)(=O)c1ccc(C(=O)Nc2cc(C)nn2-c2nc3c(c(=O)[nH]2)CCC3)cc1 | 7 | -1
CC(CCc1ccccc1)NC(=O)Cn1c(=O)oc2ccc(Cl)cc21 (stereo not drawn) | 9 | 13
CCOC(OCC)c1nc2c(c(=O)[nH]1)CN(CC(O)COc1ccccc1)CC2 (stereo not drawn) | 31 | 39
CN(CCc1noc(C2CC2)n1)C(=O)C(=O)N1CCc2ccccc21 | 3 | 2
CCN1CCN(c2cc(C(C)C)c(C#N)c3nc4ccccc4n23)CC1 | 2 | -3

Remaining list, next part.
SMILES | NPYLR7 agonist | NPYLR7 agonist max-min
Clc1ccc(-c2nnc(SCc3ccon3)o2)c(Cl)c1 | 7 | 8
CCc1nc(CN2CCCC(N(C)CCc3ccc(OC)c(OC)c3)C2)c(C)[nH]1 (stereo not drawn) | 3 | 4
CC(C)Cn1nc(C(=O)N2CCOCC2)c2c1CCC(NCc1ccc(F)cc1)C2 (stereo not drawn) | 1 | -1
Cc1ccc(C)n1NC(=O)c1ccc(OCC(=O)Nc2ccccc2)cc1 | 5 | 5
CSc1nc(C(=O)N2CC(=O)N(Cc3cnn(C)c3)CC(OCc3cccnc3)C2)cs1 (stereo not drawn) | 18 | 5
Cc1cnccc1N1CCCN(CCn2c(=O)oc3ccccc32)CC1 | 3 | 4
CCc1ccc(C=NNC(=O)CSc2nc(C)cc(C)n2)cc1 | 13 | 13
COc1ccc(-c2csc3nc(CN4CCOCC4)[nH]c(=O)c23)cc1 | -23 | -17
C=CCN(Cc1nc2scc(-c3ccc(OC)c(OC)c3)c2c(=O)[nH]1)CC(O)COc1ccccc1 (stereo not drawn) | -4 | -2
Cc1ccc(CNC(=O)C2CCC(=O)N(CCCN3CCOCC3)C2)s1 (stereo not drawn) | 8&3 | 5&1
Cc1ccsc1C(CNC(=O)c1cn2c(n1)CNCC2)N(C)C (stereo not drawn) | 24 | 10
O=C(Oc1cc(Cl)ccc1Cl)C1=CC=CN2CCS(=O)(=O)N=C12 | 0 | -6
S=C(N=P(c1ccccc1)(N1CCOCC1)N1CCOCC1)NCc1cn2ccccc2n1 | -2 | -7
COc1ccc(NC(=O)CSc2nc(C(F)(F)F)cc(=O)[nH]2)c(OC)c1 | -4 | -4
COc1ccc(-c2[nH]ncc2CNC(=O)Cc2cccnc2)cc1 | 18 | 13
Cc1ccc(C)c(CN(CC(=O)N(Cc2ccc(F)cc2)Cc2ccco2)CC(C)C)c1 | 17 | 15
C=CCOC(=O)C1C(C)=NC2=C(C(=O)CC(c3ccccc3)C2)C1c1ccc(O)cc1 (stereo not drawn) | 0 | -2
COc1cccc(C(=O)N2CCSC2c2ccccc2OCc2ccccc2)c1 (stereo not drawn) | -2 | 5
O=S(=O)(CCc1ccccc1)NCCOc1ccc2nnc(-c3ccccc3)n2n1 | 5 | 3
N#CCc1c(C#N)c(N)nc(N2CCN(C(=O)c3ccco3)CC2)c1C#N | 5 | 7
CNC(=O)c1ccc(CN(C)C(C)C(=O)Nc2ccc3c(c2)OCO3)cc1 (stereo not drawn) | 9 | 7
CCCNC(=O)Cn1nc2c(c1NC(=O)CC(c1ccccc1)c1ccccc1)CSC2 | -12 | -15
Cc1nn(C(C)C)c(C)c1S(=O)(=O)Nc1ccccc1Cl | -3 | -6
CC(C)Oc1cccc(F)c1-c1cc(C(N)=O)ccn1 | 21 | 14
COc1cc(CNC(=O)NC(C)c2ccc3c(c2)OCCO3)cc(OC)c1OC (stereo not drawn) | -2 | -3
O=C(Cn1nnnc1CN1CCc2ccccc2C1)N1CCCC1 | -2 | -3
CN(CC(=O)C(C#N)C(=O)Nc1ccccn1)S(=O)(=O)c1ccccc1 (stereo not drawn) | 1 | 9
O=c1c2ccccc2nc(-c2ccccc2I)n1Cc1ccc(F)cc1 | 6 | 4
CO[C@H]1C(=O)N(C)C2(CCN(C(=O)OCc3ccccc3)CC2)[C@@H]1C(=O)Nc1ccccc1 | 16 | 25
COc1cccc(-c2cc(C(=O)NCc3cccnc3)n3nc(-c4ccccc4)cc3n2)c1 | 21&-11 | 26&-7
CCC(=O)N(CCc1ccccc1)C1CC(=O)N(c2ccccc2)C1=O (stereo not drawn) | 0 | -3
Cn1ncc2c(NCCN3CCCC3=O)nc(C(C)(C)C)nc21 | 3 | 3
